# Compound activity from PubChem.
# PrP UTR inh: inhibition of PrP 5' UTR reporter expression. cell-based PrP 5' UTR mRNA reporter, plate reader. AID 488862, 2010. hit rate 0.35% among 340,000. inhibition, % (test concentration not listed);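 active means every replicate at 50% or more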;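 further: 0 = median of the neutral control wells; tested in H4 reporter cells; numbers are from one replicate; inactives centre near -14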
# BJeLR lethal: MLPCN primary cell-based screen for lethality selective to Ras in HRASV12 cells; BJeLR (HRASV12) viability, CellTiter-Glo ATP luminescence, 48 h; reference of the scale not given here; inhibition, % (concentration not given with the values); hit rate 0.17% among 300,000;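 active means replicate mean above 50%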;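 further: 50 nL library stock added to about 25 µL; numbers are from one replicate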
# Mtb hypoxia inh: PubChem AID 1159583. M. tuberculosis hypoxia-regulated fluorescent reporter, fluorescence. fluorescence inhibition, % (concentration not given with the values). hit rate 0.1% among 300,000;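 active means 35 to 45% if threefold the growth effect, above 45% if 1.5-fold the growth effect; inactive means the rest, general growth blockers included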;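 further: wells of about 50 µL received 100 nL stock; 0% = vehicle wells and 100% = reference inhibitor wells; whole bacteria with a GFP reporter of the hypoxia response; strong numbers were not always called active; many hits fall short of the cut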
# Sa ugtP lethal: growth inhibition of ugtP-null S. aureus, primary screen, RN4220 ugtP deletion, OD600. hit rate 0.54% among 330,000. 16 h; some inactives read as strong as hits. growth inhibition, % (test concentration not listed);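 active means z-score under -3 and OD600 up to 0.15 on both plates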;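 further: plate controls were untreated wells for no effect and antibiotic for full effect; wells of about 80 µL received 100 nL stock; the first replicate is given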
# RN4220 kill: growth inhibition of S. aureus RN4220, primary screen, OD600; hit rate 0.33% among 330,000; AID 1259311, 2017; 16 h; inhibition, % (no concentration beside the values);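 active means z-score of -3 or lower and OD600 up to 0.18 on both plates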;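 further: plate controls were untreated cells for no effect and reference antibiotic for full effect; stock transfer was 100 nL into about 80 µL; one replicate is shown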
# Bead autofluor: flagged as autofluorescent in microsphere protease counterscreen | AID 624483 | fluorescence intensity (concentration not given with the values) | compound autofluorescence counterscreen, microsphere flow cytometry; stronger effect = higher value | hit rate 3.1% among 360,000;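 active means at least 3 SD above the mean of all compounds, about 16000 in these data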;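 further: 100 nL of 1 mM stock went into each well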
# Mtb hypoxia inh growth: recorded beside Mtb hypoxia inh, whose call it bears; growth inhibition, %; measured here: M. tuberculosis growth (absorbance);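 0% = vehicle and 100% = reference antibiotic; read after six days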
# Starred values were filed as active, the others as inactive; · = not tested or not shown.
1: COc1ccc(/C=C/C(=O)NC(=S)NCc2ccccc2)cc1OC
2: O=C(C1=C[C@@H](c2ccc(C(F)(F)F)cc2)C[C@@H](OCCCCO)O1)N1CCN(Cc2ccc3c(c2)OCO3)CC1
3: CC(NC(=S)Nc1cccc(F)c1)C(c1cccs1)N1CCOCC1 (stereo unspecified)
4: COc1ccc(C(C[N+](=O)[O-])c2c(C)[nH]n(-c3ccccc3)c2=O)cc1 (stereo unspecified)
5: Cc1cc(/C=C2\SC(=S)N(C)C2=O)c(C)n1-c1ccccc1O
6: CCn1c(SCC(=O)N2CCN(c3ccc(Cl)cc3)CC2)nc2ccccc2c1=O
7: CCc1cc2cc(C)cc(C)c2nc1Cl
8: COc1ccc2c(c1)-c1nc(N=Cc3cccc(OC)c3O)sc1CC2

entry no.,1,2,3,4,5,6,7,8
Bead autofluor,4827,4336,4337,3570,4375,3808,4404,·
Sa ugtP lethal,2.5,·,-4.3,1.7,-6.6,-7.8,-3.9,0.2
Mtb hypoxia inh,8.9,·,8.2,18.1,6.1,13.7,1.6,7.9
BJeLR lethal,-0.5,-0.8,1.0,23.4,0.0,-17.8,3.9,·
RN4220 kill,1.6,·,8.0,5.4,23.8,0.3,7.0,9.2
PrP UTR inh,-18.8,-20.1,-6.4,-28.8,12.5,-5.4,-17.3,·
Mtb hypoxia inh growth,0.5,·,3.4,8.5,1.5,17.2,0.2,4.8

9: CCCCCCCCCCCCn1ccc(=N)cc1
10: CCOc1ccc(NC(=O)CC2C(=O)NCCN2C(=O)c2ccc(Cl)cc2)cc1 (stereo unspecified)
11: CCOc1ccc(/C(O)=C2\C(=O)C(=O)N(CCOCCO)C2c2ccccc2OC)cc1 (stereo unspecified)
12: CCCC(=O)Nc1ccc(S(=O)(=O)N2CCC(c3nc4ccccc4[nH]3)CC2)cc1
13: COc1ccccc1-c1noc(CCCC(=O)Nc2ccc(C(N)=O)cc2)n1
14: Cc1ccc(N/N=C/C=C/c2ccco2)cc1
15: Cc1ccc(C23CC4CC(CC(NC(=O)NCCN(C)C)(C4)C2)C3)cc1
16: CC1CN(CC(=O)Nc2ccc([N+](=O)[O-])cc2Br)CC(C)O1 (stereo unspecified)

entry no.,9,10,11,12,13,14,15,16
Bead autofluor,3663,4111,23386*,5245,·,5470,4597,4395
Sa ugtP lethal,100.7*,1.9,4.7,-1.5,-0.9,·,-4.3,3.5
Mtb hypoxia inh,25.0,-2.9,-2.5,-3.2,3.2,·,·,2.8
BJeLR lethal,87.5*,-9.6,-4.9,9.0,-2.0,-2.2,-1.9,2.6
RN4220 kill,100.6*,1.8,2.7,-0.7,0.4,·,-4.2,1.7
PrP UTR inh,-29.0,-14.3,-22.6,3.9,·,-111.4,1.0,-26.1
Mtb hypoxia inh growth,26.9,5.7,0.1,-3.4,4.0,·,·,4.3

17: Oc1cc2c(cc1CN1CCN(c3ncccn3)CC1)OCO2
18: O=C(c1ccc(Cl)cc1)C1CCN(C(=O)c2ccccc2F)CC1
19: Cc1ccccc1-c1noc(C2CCCCC2)n1
20: S=c1[nH]nc(CSCCOc2ccccc2)o1
21: Cc1ccccc1CNC(=O)Cn1cnc(S(=O)(=O)N2CCCC2)c1
22: CC(C)n1nc(C(=O)Nc2nc3ccccc3[nH]2)c2ccccc2c1=O
23: COC(=O)Nc1ccc(S(=O)(=O)N2CCC(C(=O)N3CCCCC3C)CC2)cc1 (stereo unspecified)
24: CCn1cc(CNCc2cn(C)nc2-c2ccc(C3CCCCC3)cc2)cn1

entry no.,17,18,19,20,21,22,23,24
Bead autofluor,6202,3439,22659*,4223,5361,4716,3963,4130
Sa ugtP lethal,-0.6,7.2,13.6,5.8,1.9,-0.4,-0.7,0.9
Mtb hypoxia inh,-0.4,12.8,5.5,8.2,-3.9,-7.1,11.1,12.8
BJeLR lethal,-6.2,·,-3.5,1.4,-0.8,4.0,-2.0,8.6
RN4220 kill,4.6,5.1,8.9,-0.6,-0.6,4.7,4.1,-2.5
PrP UTR inh,-9.6,-19.5,-41.1,-15.4,-0.2,0.3,-1.7,7.8
Mtb hypoxia inh growth,2.4,5.0,2.9,15.4,16.4,-1.7,3.0,9.0

25: COc1cc(N2C(=O)CC3(CCCC3)CC2=O)cc(OC)c1OC
26: O=C(COc1ccc2c(c1)OCO2)Nc1ccc2c(c1)oc1ccccc12
27: CCC(=NCc1cccnc1)c1c(O)n(C2CCCCC2)c(=O)[nH]c1=O
28: O=C(CN(c1ccc(Br)cc1)S(=O)(=O)c1ccc(Cl)c([N+](=O)[O-])c1)NCC1CCCO1 (stereo unspecified)
29: CS(=O)(=O)N(CC(=O)N1CCCC1)c1cccc(Cl)c1
30: CCCNC(=O)C1CC(=O)N(c2ccc(OCC)cc2)C1 (stereo unspecified)
31: COc1ccccc1C(=O)Nc1ccnn1C1CCN(C)CC1
32: CCn1nnc2cc(C(=O)Nc3cccc(S(=O)(=O)N(C)C)c3)ccc21

entry no.,25,26,27,28,29,30,31,32
Bead autofluor,4514,2857,20661*,5856,3163,3486,5064,3612
Sa ugtP lethal,6.0,-2.8,-3.4,8.0,3.8,4.1,4.0,-0.4
Mtb hypoxia inh,-9.4,4.9,7.0,-0.7,15.6,4.6,10.8,5.1
BJeLR lethal,0.0,-12.9,1.3,·,-11.7,-2.6,-6.2,·
RN4220 kill,3.0,5.6,4.7,-1.1,2.3,7.0,2.9,-2.1
PrP UTR inh,-32.9,-12.6,-11.2,-17.9,-22.1,-6.0,-20.5,-27.0
Mtb hypoxia inh growth,0.2,2.7,2.0,2.0,3.6,1.1,-3.2,7.6

# Ordered by molecular weight (descending): part of the list above
28: O=C(CN(c1ccc(Br)cc1)S(=O)(=O)c1ccc(Cl)c([N+](=O)[O-])c1)NCC1CCCO1 (stereo unspecified)
6: CCn1c(SCC(=O)N2CCN(c3ccc(Cl)cc3)CC2)nc2ccccc2c1=O
11: CCOc1ccc(/C(O)=C2\C(=O)C(=O)N(CCOCCO)C2c2ccccc2OC)cc1 (stereo unspecified)
23: COC(=O)Nc1ccc(S(=O)(=O)N2CCC(C(=O)N3CCCCC3C)CC2)cc1 (stereo unspecified)
13: COc1ccccc1-c1noc(CCCC(=O)Nc2ccc(C(N)=O)cc2)n1
24: CCn1cc(CNCc2cn(C)nc2-c2ccc(C3CCCCC3)cc2)cn1
32: CCn1nnc2cc(C(=O)Nc3cccc(S(=O)(=O)N(C)C)c3)ccc21
27: CCC(=NCc1cccnc1)c1c(O)n(C2CCCCC2)c(=O)[nH]c1=O
5: Cc1cc(/C=C2\SC(=S)N(C)C2=O)c(C)n1-c1ccccc1O
25: COc1cc(N2C(=O)CC3(CCCC3)CC2=O)cc(OC)c1OC

entry no.,28,6,11,23,13,24,32,27,5,25
Bead autofluor,5856,3808,23386*,3963,·,4130,3612,20661*,4375,4514
Sa ugtP lethal,8.0,-7.8,4.7,-0.7,-0.9,0.9,-0.4,-3.4,-6.6,6.0
Mtb hypoxia inh,-0.7,13.7,-2.5,11.1,3.2,12.8,5.1,7.0,6.1,-9.4
BJeLR lethal,·,-17.8,-4.9,-2.0,-2.0,8.6,·,1.3,0.0,0.0
RN4220 kill,-1.1,0.3,2.7,4.1,0.4,-2.5,-2.1,4.7,23.8,3.0
PrP UTR inh,-17.9,-5.4,-22.6,-1.7,·,7.8,-27.0,-11.2,12.5,-32.9
Mtb hypoxia inh growth,2.0,17.2,0.1,3.0,4.0,9.0,7.6,2.0,1.5,0.2

30: CCCNC(=O)C1CC(=O)N(c2ccc(OCC)cc2)C1 (stereo unspecified)
7: CCc1cc2cc(C)cc(C)c2nc1Cl

entry no.,30,7
Bead autofluor,3486,4404
Sa ugtP lethal,4.1,-3.9
Mtb hypoxia inh,4.6,1.6
BJeLR lethal,-2.6,3.9
RN4220 kill,7.0,7.0
PrP UTR inh,-6.0,-17.3
Mtb hypoxia inh growth,1.1,0.2

# Continuation.
33: COc1cc(C)nc(NC(=S)N(C)C(=O)c2ccccc2)n1
34: CCOC(=O)c1cc2ccccc2n1CC(=O)c1ccccc1
35: O=C(COc1ncnc2cc([N+](=O)[O-])ccc12)N(CCc1ccccc1)Cc1ccccc1
36: COc1ccc(-c2csc3ncnc(N4CCN(c5ccccc5OC)CC4)c23)cc1
37: COc1ccc(N=C2S/C(=C\c3ccc(N4CCOCC4)o3)C(=O)N2CCc2c[nH]c3ccccc23)cc1
38: COc1ccc(/C(C)=N/NC(=O)c2nc(C)cc(C)n2)cc1
39: O=C1C=CN2CCOCC2C1 (stereo unspecified)
40: Cc1cc(OCC(=O)NCCc2c[nH]c3ccccc23)c2c(C)c(C)c(=O)oc2c1

entry no.,33,34,35,36,37,38,39,40
Bead autofluor,·,4672,2623,4123,11073,2323,4018,4011
Sa ugtP lethal,1.8,7.9,0.0,5.4,-16.2,·,2.8,13.9
Mtb hypoxia inh,14.7,4.8,1.4,-5.5,7.8,·,7.4,·
BJeLR lethal,11.7,0.3,-16.6,5.1,-5.8,-8.7,·,-1.8
RN4220 kill,6.1,0.7,2.5,-1.1,-0.3,·,4.0,4.9
PrP UTR inh,·,-21.9,-15.6,-0.6,-7.6,-31.2,-34.1,-36.9
Mtb hypoxia inh growth,10.7,-1.1,-2.0,-4.8,-1.2,·,10.0,·

41: Cc1cc(=O)[nH]c(N/N=C/CCc2ccccc2)n1
42: COc1cccc(C(=O)Nc2ccncc2)c1
43: CCCCCN(C(=O)NC(=O)NCCCC)S(C)(=O)=O
44: CC(COS(N)(=O)=O)Cc1ccc(C(F)(F)F)cc1 (stereo unspecified)
45: CC(OC(=O)CNC(=O)c1ccc(Cl)c([N+](=O)[O-])c1)C(=O)NCc1ccco1 (stereo unspecified)
46: CCn1nc([N+](=O)[O-])c(C(C#N)c2nc3cc(C(F)(F)F)ccc3s2)c(Cl)c1=O (stereo unspecified)
47: C=C1CCN(C(CC(C)C)C(=O)NCc2ccco2)S(=O)(=O)c2ccccc21 (stereo unspecified)
48: CC(=O)c1ccc(S(=O)(=O)NCC(=O)N2CCN(C/C=C/c3ccccc3)CC2)cc1

entry no.,41,42,43,44,45,46,47,48
Bead autofluor,2497,·,8529,3878,·,22515*,·,·
Sa ugtP lethal,·,2.1,6.8,3.9,-0.3,91.5*,-1.2,11.7
Mtb hypoxia inh,·,1.4,4.1,12.7,-2.3,15.6,16.0,0.6
BJeLR lethal,-7.5,12.7,7.8,-3.0,-8.3,9.7,·,·
RN4220 kill,·,3.7,6.9,1.6,0.7,99.1*,6.7,7.7
PrP UTR inh,-16.0,·,-33.5,-10.5,0.7,-32.0,·,-2.1
Mtb hypoxia inh growth,·,-4.9,4.1,11.6,2.9,10.4,3.1,-0.7

49: C/C(=C\c1ccco1)C1C(C#N)=C(N)Oc2n[nH]c(-c3ccccc3)c21 (stereo unspecified)
50: CCOC(=O)COn1c(=O)c(-c2ccc(C)cc2)[n+]([O-])c2ccccc21
51: Cc1ccccc1NC(=O)NC(C)(C)CC(C)(C)C
52: Cc1[nH]n(-c2ccccc2)c(=O)c1C(C[N+](=O)[O-])c1ccc(Cl)cc1 (stereo unspecified)
53: COc1ccc(/C=C2/Sc3ccc(C(=O)N4CCc5ccccc5C4)cc3NC2=O)cc1
54: Cc1ccc(NC(=O)c2ccc(OCc3c(C)noc3C)cc2)cc1C
55: O=C(Nc1cccnc1)c1cc(-c2ccccc2O)on1
56: O=C(NCCn1cccc1)c1cccc2ccccc12
57: O=C(NCCN1CCN(c2ccccc2)CC1)Nc1ccc(Cl)cc1
58: CS(=O)(=O)NCCCCNc1ccc(C(F)(F)F)cc1[N+](=O)[O-]
59: O=C(Nc1ccccc1)c1ccc(-c2ccccc2)s1

entry no.,49,50,51,52,53,54,55,56,57,58,59
Bead autofluor,6167,3207,5167,9882,2132,4567,5073,6875,4128,3535,4096
Sa ugtP lethal,-17.2,2.4,-0.8,4.0,-7.6,5.6,-6.8,7.5,3.2,-4.8,-0.5
Mtb hypoxia inh,3.8,-3.1,5.1,5.9,10.6,11.3,-7.5,16.1,8.0,-1.0,1.1
BJeLR lethal,1.5,-8.3,-1.7,10.2,-5.9,·,2.4,-6.0,-8.1,-0.5,3.6
RN4220 kill,-0.1,2.9,5.4,15.3,3.8,0.9,-1.2,6.2,-1.8,2.6,5.8
PrP UTR inh,-18.7,-20.6,-23.8,-6.9,-18.9,-13.9,-41.5,-20.9,0.8,-15.5,-8.7
Mtb hypoxia inh growth,1.7,-1.8,6.9,4.7,9.6,10.0,-0.3,11.0,2.6,0.5,0.5
